# Compound activity from PubChem BioAssay.
# AF4-AF9 inh = blocks AF4 peptide binding to human AF9. AlphaScreen, biotin-AF4 peptide binding to FLAG-AF9. AID 651704. 350,000 tested, 0.47% active. inhibition, % at 10 µM. P42568;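 active means every replicate reaching a set inhibition limit, whatever the replicate mean, cut at about 25% in these data; inconclusive means mean inhibition reaches that limit but some replicates miss it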;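 further: 0% = plate neutral control median and 100% = total signal loss; the record names both 10 and 1 µM as test concentration; the first replicate is given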
# Target sequence (P42568 whole entry, looked up): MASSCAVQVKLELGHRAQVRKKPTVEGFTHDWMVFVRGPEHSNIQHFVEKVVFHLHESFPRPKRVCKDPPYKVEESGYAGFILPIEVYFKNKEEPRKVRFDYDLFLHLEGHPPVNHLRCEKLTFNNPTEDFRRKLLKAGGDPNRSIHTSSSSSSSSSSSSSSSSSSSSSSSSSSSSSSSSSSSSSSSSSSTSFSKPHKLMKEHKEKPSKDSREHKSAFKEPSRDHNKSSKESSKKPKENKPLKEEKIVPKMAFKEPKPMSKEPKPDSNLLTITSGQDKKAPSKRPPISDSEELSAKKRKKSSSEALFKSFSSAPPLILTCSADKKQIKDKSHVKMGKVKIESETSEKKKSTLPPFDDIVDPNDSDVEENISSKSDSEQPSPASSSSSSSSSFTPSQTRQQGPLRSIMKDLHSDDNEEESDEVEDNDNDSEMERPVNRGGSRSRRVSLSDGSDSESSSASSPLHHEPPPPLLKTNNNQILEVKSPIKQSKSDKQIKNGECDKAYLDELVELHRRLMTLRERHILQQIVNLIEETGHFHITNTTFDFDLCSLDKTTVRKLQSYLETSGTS
# * hit, by the source's call; ? = inconclusive. Only part of the results is shown. The share of hits here may be higher or lower than overall.
SMILES,AF4-AF9 inh
C[C@@H]1CN([C@@H](C)CO)C(=O)c2cccc(NC(=O)Nc3ccc(F)cc3)c2O[C@H]1CN(C)C(=O)Nc1ccc2c(c1)OCO2,2.9
CC(=O)Oc1cc(C(=O)OCC(=O)NC23CC4CC(CC(C4)C2)C3)cc(OC(C)=O)c1OC(C)=O,4.4
CCOC(=O)C(C)(C)CC#CCN(CC#Cc1ccccc1)S(=O)(=O)c1ccc(C)cc1,-2.3
Cc1noc(C)c1NC(=O)N(C)C[C@H]1Oc2ncc(C#CC3CC3)cc2C(=O)N([C@H](C)CO)C[C@@H]1C,-2.2
COc1ccc(-c2nc3c4ccccc4ccn3c2Cc2cccc(Cl)c2)cc1OC,0.9
O=C(c1cccc(F)c1)N1CCCCN2[C@H](CO)[C@@H](c3ccc(C#CC4(O)CCCC4)cc3)[C@H]2C1,1.9
C[C@H]1CN([C@@H](C)CO)C(=O)Cc2cc(NS(=O)(=O)c3ccc(F)cc3)ccc2O[C@@H]1CN(C)S(=O)(=O)c1ccc(F)cc1,-12
NC(Cc1ccc(Cl)cc1)c1csc(Nc2ccc(S(N)(=O)=O)cc2)n1 (centres undefined),7.7
CC(=O)CCN1CCSCCS1(=O)=O,-3.2
COc1ccc(-c2ccc([C@@H]3[C@@H](C#N)N(C(=O)C4CCCC4)[C@H]3CO)cc2)cc1,-3.1
CN(C)CC#Cc1ccc([C@H]2[C@@H](CO)N3CCCCN(C(=O)c4ccc5c(c4)OCO5)C[C@@H]23)cc1,1.7
C[C@H]1CN([C@@H](C)CO)C(=O)Cc2cc(NS(=O)(=O)c3cn(C)cn3)ccc2O[C@@H]1CN(C)S(=O)(=O)c1ccc(F)cc1,-4.1
Cc1noc(C)c1S(=O)(=O)Nc1cccc2c1O[C@H](CN(C)C(=O)Nc1ccc(F)cc1)[C@H](C)CN([C@H](C)CO)C2=O,-4.3
CC(C)CNc1cccc2c1S(=O)(=O)N[C@@H](C)CO2,-2.4
O=C(NCC(F)(F)F)c1cc2c(c(-c3cccc(-c4ccccc4F)c3)n1)[C@@H](CCO)N(C(=O)CC1CC1)C2,-3.5
COc1ccc2c3c([nH]c2c1)[C@H](CO)N(CC1CC1)CC31CN(C(=O)NC2CCCC2)C1,3.3
C[C@@H]1CN([C@@H](C)CO)C(=O)c2cccc(NC(=O)C3CC3)c2O[C@H]1CN(C)S(=O)(=O)c1ccccc1,-6.0
COc1ccc(S(=O)(=O)N(C)C[C@@H]2Oc3ccc(NS(=O)(=O)c4c(C)noc4C)cc3C(=O)N([C@H](C)CO)C[C@@H]2C)cc1,3.9
O=C(CC(F)(F)F)N1C[C@H]2[C@@H](c3ccccc31)[C@@H](CO)N2C(=O)Cc1cccnc1,0.0
C[C@H]1CN([C@@H](C)CO)C(=O)c2cc(NS(=O)(=O)c3ccc(Cl)cc3)ccc2O[C@H]1CN(C)Cc1ccc(Oc2ccccc2)cc1,-0.6
C[C@@H]1CN([C@@H](C)CO)C(=O)c2cc(NS(=O)(=O)c3ccc(Cl)cc3)ccc2O[C@@H](C)CCCCO[C@@H]1CN(C)C(=O)Nc1ccc2c(c1)OCO2,-9.3
C[C@H]1CN([C@@H](C)CO)C(=O)c2cccc(NC(=O)Nc3ccccc3)c2O[C@@H]1CN(C)CC1CCCCC1,6.5
COCC(=O)N1[C@H](C(=O)Nc2ccccc2)[C@@H](CO)[C@@H]2Cn3c(ccc(-c4cccnc4)c3=O)[C@@H]21,0.1
COC(=O)C1=C(C)N(C)C(=NCc2ccc(OC)cc2)NC1c1ccccc1 (centres undefined),-1.5
COCC(=O)N(C)C[C@H]1[C@H](c2ccccc2)[C@H](CO)N1C(=O)Cc1ccncc1,-1.0

# Gathered by group, the entries above containing a CF3 group.
SMILES,AF4-AF9 inh
O=C(NCC(F)(F)F)c1cc2c(c(-c3cccc(-c4ccccc4F)c3)n1)[C@@H](CCO)N(C(=O)CC1CC1)C2,-3.5
O=C(CC(F)(F)F)N1C[C@H]2[C@@H](c3ccccc31)[C@@H](CO)N2C(=O)Cc1cccnc1,0.0

# Single entries from the results shown:
# COc1ccc(S(=O)(=O)N(C)C[C@@H]2Oc3ccc(NS(=O)(=O)c4c(C)noc4C)cc3C(=O)N([C@H](C)CO)C[C@@H]2C)cc1 in AF4-AF9 inh → 3.9
# C[C@@H]1CN([C@@H](C)CO)C(=O)c2cccc(NC(=O)C3CC3)c2O[C@H]1CN(C)S(=O)(=O)c1ccccc1 in AF4-AF9 inh → -6.0

# Going on with the list:
SMILES,AF4-AF9 inh
Cc1ccc(S(=O)(=O)Nc2ccc3c(c2)CC(=O)N([C@@H](C)CO)C[C@H](C)[C@H](CN(C)Cc2ccc(Cl)c(Cl)c2)O3)cc1,-1.8
COc1ccc(NC(=O)C(C2CC2)n2c(=O)c(-c3ccco3)nc3ccccc32)cc1 (centres undefined),4.4
OC[C@H]1[C@@H](c2ccc(-c3cccnc3)cc2)[C@@H]2CN(CC3CCOCC3)CCCCN12,1.5
CC(C)NC(=O)Nc1cccc2c1O[C@@H](CN(C)C(=O)Nc1ccccc1)[C@@H](C)CN([C@H](C)CO)C2=O,-2.3
CN(C)C(=O)c1cccc(-c2ccc([C@@H]3[C@H]4CN(C(=O)Cc5ccccc5)CC(=O)N4[C@H]3CO)cc2)c1,-3.2
CC(C)NC(=O)N(C)C[C@H]1OCCCC[C@H](C)Oc2ccc(NC(=O)Nc3ccc4c(c3)OCO4)cc2C(=O)N([C@H](C)CO)C[C@@H]1C,2.6
C/C=C/c1cnc2c(c1)C(=O)N([C@H](C)CO)C[C@H](C)[C@@H](CN(C)C(=O)Nc1cccc(OC)c1)O2,-1.7
COc1ccc(NC(=O)N(C)C[C@@H]2Oc3ncc(C#CCN(C)C)cc3C(=O)N([C@H](C)CO)C[C@H]2C)cc1,-1.7
C/C=C/c1ccc([C@@H]2[C@@H](CO)N(C(C)=O)C23CN(C(=O)c2ccccc2)C3)cc1,2.1
COc1ccc(-c2ccc3c(c2)[C@@H]2[C@@H](CCN2C(=O)c2ccc4c(c2)OCO4)[C@H](CO)N3C)cc1,4.4
C[C@H]1CCCCO[C@H](CN(C)Cc2ccc(C(=O)O)cc2)[C@@H](C)CN([C@@H](C)CO)C(=O)c2cc(NC(=O)C3CCCCC3)ccc2O1,-1.4
CSCC[C@@H](CO)NC(=O)[C@H]1O[C@@H](n2ccc(N)nc2=O)[C@H](O)[C@@H]1O,-1.0
CC1CC(C)CN(c2nc3c(c(=O)n(C)c(=O)n3C)n2CCSc2nc3ccccc3o2)C1 (centres undefined),1.7
C[C@@H]1CN([C@@H](C)CO)S(=O)(=O)c2ccc(/C=C/c3ccccc3)cc2O[C@H]1CN(C)C(=O)Nc1cc(F)ccc1F,-1.7
C[C@@H]1CN([C@H](C)CO)C(=O)Cc2cc(NC(=O)NC3CCCCC3)ccc2O[C@@H]1CN(C)C(=O)Nc1ccc(C(F)(F)F)cc1,-0.9
COc1ccccc1-c1csc(C(C)(O)c2cccc(F)c2)n1 (centres undefined),-7.8
C[C@H]1CN([C@@H](C)CO)C(=O)c2cccc(NC(=O)c3ccc(-c4nccs4)cc3)c2O[C@H]1CN(C)Cc1ccc(C(=O)Nc2ccccc2N)cc1,0.7
O=S(=O)(c1ccc(-c2ccccc2)cc1)N1C[C@@H]2N[C@H](C1)[C@@H]2c1ccc(-c2cccnc2)cc1,2.1
NC(c1ccc(F)c(F)c1)c1nc(-c2ccc3ccccc3c2)cs1 (centres undefined),-1.0
COc1ccc2c3c(n(C)c2c1)[C@H](CO)N(Cc1ccccn1)CC31CCN(Cc2ccccn2)CC1,-0.2
O=C(C[C@@H]1C[C@@H]2c3cc(NC(=O)NC4CCCCC4)ccc3O[C@@H]2[C@H](CO)O1)NCCc1ccccc1,-4.7
O=C(C[C@@H]1C=C[C@H](NC(=O)C2CC2)[C@@H](CO)O1)NCc1ccncc1,-0.2
Cc1noc(C)c1NC(=O)Nc1ccc2c(c1)CC(=O)N([C@@H](C)CO)C[C@@H](C)[C@@H](CN(C)S(=O)(=O)c1cccs1)O2,?
CN(C)C(=O)C[C@H]1CC[C@H]2[C@@H](COC[C@H](O)CN2C(=O)c2ccncc2)O1,-0.4
C[C@@H]1CN([C@@H](C)CO)C(=O)c2cccc(NC(=O)Nc3ccc4c(c3)OCO4)c2O[C@@H]1CN(C)CC1CCCCC1,8.6
SMILES,AF4-AF9 inh
COc1ccc(S(=O)(=O)N(C)C[C@H]2OCCCC[C@H](C)Oc3ccc(NC(=O)CCC(F)(F)F)cc3C(=O)N([C@@H](C)CO)C[C@H]2C)cc1,-2.0
COc1ccc(S(=O)(=O)N2CCC[C@H]2C(=O)N2CCC[C@H]2C(=O)NCc2ccc(F)cc2F)cc1C,0.8
COc1ccc(CCC(=O)Nc2c(-c3ccc(N(C)C)cc3)[nH][nH]c2=O)cc1,-10
O=S(=O)(c1cccs1)N1CCCCN2[C@@H](CO)[C@@H](c3ccc(C4=CCCCC4)cc3)[C@@H]2C1,0.8
COc1ccc(S(=O)(=O)Nc2ccc3c(c2)C(=O)N([C@@H](C)CO)C[C@H](C)[C@@H](CN(C)C(=O)NC2CCCCC2)OCCCC[C@H](C)O3)cc1,2.8
C[C@@H]1CN([C@H](C)CO)C(=O)Cc2cc(NS(=O)(=O)c3cccs3)ccc2O[C@@H]1CN(C)C(=O)NC1CCCCC1,-1.3
COc1cc(OC)cc(C(=O)NNC(=O)CCOc2ccccc2OC)c1,-0.2
CCCS(=O)(=O)NC(=O)C1(C)CCCN(C(=O)c2c(-c3ccccc3)noc2C)C1 (centres undefined),-2.3
CCCNC(=O)N[C@H]1C=C[C@H](CC(=O)N2CCN(C)CC2)O[C@H]1CO,1.6
O=C(CC1CC1)N1CC(=O)N2[C@@H](CO)[C@@H](c3ccc(C#Cc4cccc(F)c4)cc3)[C@@H]2C1,-3.2
COc1cccc(-c2ccc3c(c2)O[C@H](CN(C)Cc2cncnc2)[C@H](C)CN([C@@H](C)CO)S3(=O)=O)c1,1.4
CCCC#Cc1cnc2c(c1)C(=O)N([C@@H](C)CO)C[C@H](C)[C@@H](CN(C)S(=O)(=O)c1ccccc1)O2,0.5
COc1ccc(NC(=O)Nc2ccc3c(c2)[C@H]2C[C@H](CC(=O)NCC4CC4)O[C@H](CO)[C@H]2O3)cc1,-1.1
COc1ccccc1NC(=O)N1C[C@H](O)COC[C@@H]2O[C@@H](CC(=O)NCCc3ccncc3)CC[C@H]21,-2.4
C[C@@H]1CN([C@H](C)CO)S(=O)(=O)c2ccc(C#Cc3ccc(F)cc3)cc2O[C@@H]1CN(C)C(=O)NC1CCCC1,-0.9
O=C(c1ccccc1)N1C[C@@H]2[C@H](c3ccccc31)[C@@H](CO)N2C(=O)c1cccc(F)c1,1.4
CC(C)NC(=O)N(C)C[C@@H]1Oc2ccc(NC(=O)CCN3CCOCC3)cc2CC(=O)N([C@@H](C)CO)C[C@H]1C,-0.7
O=C(C[C@H]1C=C[C@@H](NC(=O)NC2CCCCC2)[C@@H](CO)O1)NCc1ccccc1,0.0
Cc1ccc(S(=O)(=O)Nc2ccc3c(c2)C(=O)N([C@@H](C)CO)C[C@H](C)[C@H](CN(C)S(=O)(=O)c2c(C)noc2C)O3)cc1,1.7
COc1cccc(S(=O)(=O)Nc2ccc3c(c2)[C@@H]2C[C@@H](CC(=O)N(C)C)O[C@@H](CO)[C@@H]2O3)c1,-4.6
C[C@@H]1CN([C@H](C)CO)S(=O)(=O)c2ccc(Br)cc2O[C@@H]1CN(C)C(=O)c1cnccn1,1.0
C[C@H](CO)N1C[C@H](C)[C@H](CN(C)Cc2ccc(C(F)(F)F)cc2)Oc2ccc(N(C)C)cc2C1=O,11
CO[C@@H]1CN(C)C(=O)c2ccc(NC(=O)C3CCC3)cc2OC[C@H](C)N(Cc2ccccn2)C[C@@H]1C,-1.1
CCCc1cn([C@H]2C[C@@H]3O[C@H](CO)CC[C@@H]3O[C@@H]2CCc2ccc(C#CCc3ccccc3)cc2)nn1,-1.9
CCS(=O)(=O)Nc1ccc2c(c1)C(=O)N(C)C[C@H](OC)[C@@H](C)CN(C(=O)COC)[C@H](C)CO2,3.4

# Sorted by SMILES length (high to low): some entries from above
SMILES,AF4-AF9 inh
Cc1ccc(S(=O)(=O)Nc2ccc3c(c2)C(=O)N([C@@H](C)CO)C[C@H](C)[C@H](CN(C)S(=O)(=O)c2c(C)noc2C)O3)cc1,1.7
CCCC#Cc1cnc2c(c1)C(=O)N([C@@H](C)CO)C[C@H](C)[C@@H](CN(C)S(=O)(=O)c1ccccc1)O2,0.5
C[C@@H]1CN([C@H](C)CO)S(=O)(=O)c2ccc(Br)cc2O[C@@H]1CN(C)C(=O)c1cnccn1,1.0

# 2 of the compounds above, with tabs:
SMILES	AF4-AF9 inh
CCOC(=O)C(C)(C)CC#CCN(CC#Cc1ccccc1)S(=O)(=O)c1ccc(C)cc1	-2.3
O=C(C[C@H]1C=C[C@@H](NC(=O)NC2CCCCC2)[C@@H](CO)O1)NCc1ccccc1	0.0

# Continuation.
SMILES,AF4-AF9 inh
CCNC(=O)C[C@@H]1CC[C@@H]2[C@@H](COc3ccc(NC(=O)c4cscn4)cc3C(=O)N2C)O1,-1.4
COc1ccc(CN2C[C@H](O)COC[C@H]3O[C@@H](CC(=O)N4CCc5ccccc5C4)CC[C@@H]32)cc1,0.9
COc1ccc(C#Cc2ccc3c(c2)[C@]2(C(=O)N3)[C@H](c3ccccc3OCCO)N3[C@H](c4ccccc4)[C@H](c4ccccc4)OC(=O)[C@H]3[C@@H]2C(=O)N2CCN(c3ncccn3)CC2)cc1,-3.3
C[C@H](CO)N1C[C@H](C)[C@H](CN(C)Cc2ccc(C(=O)Nc3ccccc3N)cc2)Oc2c(NS(=O)(=O)c3ccc(Cl)cc3)cccc2C1=O,-2.6
C[C@H]1CN([C@@H](C)CO)C(=O)c2cc(NC(=O)CCN3CCOCC3)ccc2O[C@@H]1CN(C)Cc1ccc(C(=O)Nc2ccccc2N)cc1,-1.2
C[C@@H]1CN([C@H](C)CO)C(=O)c2cccc(N(C)C)c2O[C@H]1CN(C)C(=O)Nc1ccccc1,-2.6
O=S(=O)(N[C@@H]1CC[C@@H](CCn2cc(C3CC3)nn2)O[C@@H]1CO)c1ccc(Cl)cc1,-1.0
